AID504770: growth inhibitors of E. coli YBA685 in a screen for V. cholerae RctB (chromosome II replication) inhibitors; z-score (concentration not given with the values); actives 0.27% (n = 130,000); AID 504770; E. coli YBA685 rctB-dependent plasmid, OD600 growth, 3 h; stronger effect = lower value;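 active means z-score under -2 on both plates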;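 further: wells of about 30 µL received 100 nL stock; score is relative to mean and SD of the test wells; the first replicate is given; strong numbers were not always called active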
CapD inh: inhibitors of Bacillus anthracis CapD enzyme; purified CapD enzyme, fluorescence intensity read-out; stronger effect = lower value; some hits fall short of the stated cut; z-score (no concentration beside the values); actives 0.23% (n = 140,000); AID 492967;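 active means z-score under -4 in either of two replicates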;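 further: stock transfer was 100 nL into about 40 µL; score is relative to mean and spread of the plate; one replicate is shown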
An asterisk follows results filed as active; . = no result given.

molecule | AID504770 | CapD inh
CC1(C)CC(N2CCC(O)(c3ccccc3)C(C(=O)c3ccccc3)C2)CC(C)(C)N1 (centres undefined) | 0.1 | 0.015
CCCc1cc(=O)[nH]c(SCC(=O)N2CCN(S(=O)(=O)c3ccccc3)CC2)n1 | 0.3 | .
CCOC(=O)/C(C#N)=C/c1cc(Br)cs1 | -0.2 | .
CCOC(=O)c1cnc(SCC(=O)OCC(=O)Nc2sc3c(c2C#N)CCC3)nc1N | 0.6 | .
COc1ccc2c(C)c(CCC(=O)N3CCCCC3)c(=O)oc2c1 | 0.55 | 102
O=c1ccc2cc(S(=O)(=O)NCCN3CCN(c4cccc(Cl)c4)CC3)ccc2[nH]1 | 1.6 | -0.74
CC(NS(=O)(=O)c1ccc2c(c1)c(=O)n(C)c(=O)n2C)C(=O)N1CCN(c2ccc(Cl)cc2)CC1 (centres undefined) | 0.5 | 0.6
O=C(N/N=C/c1ccncc1)c1sccc1OCc1ccc(F)cc1 | . | -1.4
COCCn1c(SCC(N)=O)nc2c(c1=O)SC(C)C2 (centres undefined) | 0.05 | -1.8
CN(C)c1ccc(C(=O)N2CCN(C(c3ccccc3)c3ccccc3)CC2)cc1 | 1.9 | -0.71

Next part.
molecule | AID504770 | CapD inh
COc1cc(OC)nc(C2CCN(C(=O)c3ccccc3NC(=O)C(C)(C)C)CC2)n1 | . | 1.2
Cn1c(SCC(=O)Nc2ccccc2)nnc1-c1ccc2ncccc2c1 | . | 0.97
COCCN=c1scc(C)n1/N=C/C1CC2C=CC1C2 (centres undefined) | 1.7 | .
COc1cccc2c(=O)n(CC(N)=O)ccc12 | 1.9 | 20
CC(C)C(=O)OCC(=O)Nc1ccc(I)cc1 | -1.3 | -1.7
CC(C)N1C(=O)/C(=C\c2ccc(N(C)C)cc2)SC1=Nc1ccccc1 | . | -0.99
COc1cccc(OC)c1C(=O)c1cc[n+](C)cc1 | -1.1 | -0.55
Cc1ccc2c(c1)-c1onc(C(=O)NC3CCCCC3)c1CO2 | -0.8 | 4
COc1ccc(-c2cc(-c3ccco3)c(C#N)c(N)n2)cc1 | 0.9 | 70
CCOC(=O)CSc1nnc(-c2cccc(C)c2[N+](=O)[O-])n1-c1ccccc1 | . | 0.28

(cont.)
molecule | AID504770 | CapD inh
CNS(=O)(=O)c1cccc(C(=O)NCC(c2ccco2)N(C)C)c1 (centres undefined) | -0.05 | .
Cc1ccc(C(=O)c2ccccc2[N+](=O)[O-])cc1 | . | -0.38
CCn1cc(P(=Nc2ccc(C(=O)O)cc2)(N2CCOCC2)N2CCOCC2)c2ccccc21 | 1.1 | .
CCn1c(C(=O)OC)cc2occc21 | 0.35 | -1.6
C=CCSc1nnc(-c2ccc(Cl)cc2)n1CC(OC)OC | 2.7 | -2
Cc1ccc(-c2csc(=Nc3c(C)n(C)n(-c4ccccc4)c3=O)n2CCO)cc1 | 0.1 | .
O=C(O)c1c(-c2ccccc2)nnc2ccccc12 | . | -0.34
CCCc1cc(=O)n(CC(=O)N2CCCc3ccccc32)c(-n2nc(C)cc2C)n1 | 1.5 | .
COc1ccc(CCNc2cc(C)nc3c(-c4ccc(OC)c(OC)c4)c(C)nn23)c(OC)c1 | -0.45 | 2.2
COc1ccc(C(=O)Nn2c(SCC(=O)Nc3ccc(C)c(Cl)c3)nc3ccccc3c2=O)cc1 | . | 1.2

Other structures
molecule | AID504770 | CapD inh
O=C1C2C3c4ccccc4C(c4ccccc43)C2C(=O)N1c1ccc(Oc2ccc3ccccc3c2)cc1 (centres undefined) | . | -0.27
Cc1cc2cc(CN(C(=O)N(C)C)C3CCCC3)c(Cl)nc2cc1C | -1 | .
CCn1c(-c2ccccc2)cnc1SCC(=O)N(C)C1(C#N)CCCCC1 | 2.2 | .
O=S(=O)(/C=C/c1ccccc1)N1CCN(c2ccccn2)CC1 | 0.8 | -0.22
O=S(=O)(c1ccc(Cl)cc1)N1CCSCC1 | . | 0.19
COc1ccc(C2Nc3ccc(Cl)cc3C(c3ccccc3)O2)cc1OC (centres undefined) | . | 0.085
CCOC(=O)C1=C(C)NC2=C(C(=O)c3ccccc32)C1c1ccc(C(C)C)cc1 (centres undefined) | . | -0.2
CCCSc1nnc(NC(=O)Cc2ccc(OC)cc2)s1 | 0.45 | 0.47
COc1ccc(N2C(=O)C(N3C(=O)c4ccc([N+](=O)[O-])cc4C3=O)C2c2cc(Br)ccc2OC)cc1 (centres undefined) | . | -0.24
Cc1cccc(NC(=S)Nn2c(O)c(C)sc2=S)c1 | -0.6 | .

Further records.
molecule | AID504770 | CapD inh
COC(=O)c1ccc(NCc2cc(=O)n3ccsc3n2)cc1 | -0.1 | .
CCC(CC)c1nc2c(c3c1[nH]c1ccccc13)C(=O)CC(C)(C)C2 | . | 17
CCOC(=O)C1C(C)=C(c2ccc(Cl)cc2)OC(N)=C1C#N (centres undefined) | -0.75 | 2.1
O=C(CCCO)N/N=C/c1cccc2c1OCO2 | . | 35
Oc1ccc(O)cc1 | -0.2 | .
COc1ccc(C(=O)CSC2=C(C#N)C(C)(C)C(C#N)=C(N)N2)cc1 | -0.05 | .
Cn1c(SCC(=O)NC(=O)Nc2ccccc2F)nc2cc(S(N)(=O)=O)ccc21 | -0.3 | .
Cc1ccc(CNc2ccc(N3CCOCC3)c(Cl)c2)s1 | 0.9 | -1.5
CCOc1cccc2c1OC(c1ccc(C(=O)OC)cc1)N1N=C(c3cccnc3)CC21 (centres undefined) | . | -0.59
Cc1ccc(C)c(NC(=O)Cc2nc(CSc3nnc(-c4cccs4)o3)cs2)c1 | -0.95 | .

(more compounds)
molecule | AID504770 | CapD inh
CSc1ncc(OCc2ccccc2)c(=O)[nH]1 | -0.6 | 0.26
COc1cc2cc(C(=O)Nc3ccccc3)c(N)nc2cc1OC | -0.5 | .
Cc1nnc(NC2CCCCC2)n(C)c1=O | -0.25 | 0.035
CCC(CC)NC(=O)/C=C/c1ccccc1 | 0.15 | -0.12
COc1ccc(C(=O)Nc2cccnc2Oc2ccc(Cl)cc2)cc1OC | . | -0.24
CC(C)(C)c1csc(NC(=O)c2ccc(C#N)cc2)n1 | -0.25 | -1
CN(CC(=O)Nc1nc(-c2ccc(Cl)cc2)cs1)Cc1ccccc1 | . | -0.15
O=C1NC(=O)/C(=C\c2ccc(N3CCCC3)c(F)c2)N1 | 0.15 | 2
CCOc1ncccc1C(=O)Oc1ccc(C(=O)OC)cc1OC | -0.85 | .
Cc1cc(CN2CCN(CCC#N)CC2)c(O)c(C2(C)CCCCC2)c1 | 1.8 | 0.085

(further entries)
molecule | AID504770 | CapD inh
Cc1nc(NC(=O)CSc2nc3cccnc3n2C2CCCCC2)sc1C | -0.1 | .
S=c1n(CN2CCCCC2)cnn1CN1CCCCC1 | -0.2 | -1.3
N#CCC(=O)Nc1ccc(C(=O)OCc2ccccc2Cl)cc1 | 0.6 | 1.1
CCn1c(C(=O)N2CCc3ccccc3C2)cc2sccc21 | -0.45 | -0.26
COc1ccc(Nc2c(-c3ccccc3)nc3cnccn23)cc1 | 2 | -0.95
CCCCCn1c(SCC(=O)c2ccccc2)nc2cc(C(=O)N3CCC(C(N)=O)CC3)ccc2c1=O | . | -0.01
CC(=O)N1CCn2c3c(c4cc(C)ccc42)CCCC31 (centres undefined) | . | 0.045
Nc1nc(=O)n(C2OC(CO)C(O)C2O)cc1Br (centres undefined) | . | -0.35
Cc1ccc(-c2sc(-c3ccccc3)nc2CC(=O)O)cc1 | 0 | 9.3
CCN(CC)c1nc2c(S(=O)(=O)c3ccccc3)nnn2c2ccccc12 | 0.55 | -0.3

(continued)
molecule | AID504770 | CapD inh
CCN1C(=O)C(=Cc2cn(Cc3c(F)cccc3Cl)c3ccccc23)C(=O)N(CC)C1=S | -0.3 | -0.34
c1ccc(Cc2nnc3sc(-c4ccccn4)nn23)cc1 | 0.2 | 0.64
CC(=O)C(Cc1cnc(Cl)s1)(Cc1cnc(Cl)s1)C(C)=O | . | 0.41
CN(C)C(=O)Cc1ccc(S(C)(=O)=O)cc1 | . | -0.14
COc1ccc2oc(=O)cc(CN3CCCc4ccccc43)c2c1 | 0.65 | 1
CCOC(=O)c1c(NC(=O)Cc2ccc(OC)cc2)sc(C(=O)Nc2ccccc2OC)c1C | . | 0.99
CCN1C(=O)c2ccc(C(=O)NCc3ccccc3)cc2C1=O | -0.8 | 0.1
O=C(O)c1coc(=O)c(Br)c1 | -4.7* | -0.78
Cc1ccc2c(CN(C)Cc3ccco3)cc(=O)oc2c1 | 0.15 | 0.53
CC(O)C(C(=O)O)N1C(=O)c2ccccc2C1=O (centres undefined) | 0 | .

New compounds follow
molecule | AID504770 | CapD inh
CN1CCN(c2nc(-c3ccncc3)nc(-c3ccc(Cl)cc3)c2C#N)CC1 | . | 0.11
CCCc1cc(C(=O)NC2CCCCC2)no1 | -0.7 | -0.36
COC(=O)c1ccc(-c2nc(OC)cc(OC)n2)cc1 | . | -0.21
CCC1=NN(C(=O)Cc2ccccc2)C(O)(c2ccc(Br)cc2)C1 (centres undefined) | . | -0.28
COc1cc2c(cc1OC)C(COc1ccccc1OC)N(C(=O)/C=C/c1ccccc1)CC2 (centres undefined) | 0.3 | 49
c1ccc(-c2nccnc2-c2ccccn2)nc1 | -0.8 | -0.68
COc1ccc(NC(=O)COc2cc(=O)n(C)c3ccccc23)cc1OC | 0.75 | -0.17
CN(C)c1ccc(C(=O)N=c2sc3cc(Cl)ccc3n2C)cc1 | -0.15 | 1.1
O=C(OCc1ccccc1C(F)(F)F)N1CCN(Cc2ccccc2OCc2ccccc2)CC1 | . | 0.56
Cc1cc(C(=O)Oc2ccccc2Cc2ccccc2)on1 | 2.5 | .

Filtered by structure, the entries above with a nitro group on carbon
molecule | AID504770 | CapD inh
CCOC(=O)CSc1nnc(-c2cccc(C)c2[N+](=O)[O-])n1-c1ccccc1 | . | 0.28
Cc1ccc(C(=O)c2ccccc2[N+](=O)[O-])cc1 | . | -0.38
COc1ccc(N2C(=O)C(N3C(=O)c4ccc([N+](=O)[O-])cc4C3=O)C2c2cc(Br)ccc2OC)cc1 (centres undefined) | . | -0.24

Remaining list, next part
molecule | AID504770 | CapD inh
N#Cc1ccc(NCC(=O)Nc2ccc(S(=O)(=O)N3CCCCC3)cc2)cc1 | -0.05 | .
Cc1cc(C)nc(Nc2c(C)cccc2C)n1 | . | -0.42
CC1=C(C(=O)Nc2ccccc2C)C(c2ccc(Cl)cc2Cl)NC(=O)N1 (centres undefined) | . | 0.35
COC(=O)CSCC1=CS(=O)(=O)c2ccc(Cl)cc21 | 0.45 | -0.61
Cc1cc2c(ncn2Cc2ccccc2)c(N)c1C | 1.6 | -0.54
C=CCN1CCN(C(=O)c2cccc(C)c2)CC1 | 2.2 | -0.79
CC(=O)c1ccc(C#Cc2ccccc2)cc1 | . | 5.1
Cn1ccnc1P(=S)(c1nccn1C)N1CCOCC1 | -0.2 | .
CCOC(=O)N1CCC(NC(=O)c2ccc3c(Cl)c4c(nc3c2)CCCC4)CC1 | -1.4 | -0.57
N/N=C(/Cn1nnc(N2CCCCC2)n1)c1ccc(Cl)cc1 | -0.6 | 0.64

(next part)
molecule | AID504770 | CapD inh
O=C(C/C=N\OCc1ccc([N+](=O)[O-])cc1)Nc1ccc(Br)cc1 | . | -0.41
O=C(OCCCN1CCOCC1)c1ccc(O)cc1O | -1.2 | .
C=CCN(CC=C)S(=O)(=O)c1ccc(NC(=O)c2cccnc2)cc1 | 0.1 | 0.12
O=C(CSc1nncc(=O)[nH]1)NCc1ccccc1 | 0.45 | 0.97
Clc1ccc(-c2ncnn2-c2ccc(Br)nc2)cc1 | 0.45 | -0.18
O=c1oc2ccc(Cl)cc2cc1-c1csc(Nc2cc(C(F)(F)F)ccc2Cl)n1 | . | 0.47
CCC(C)NC(=O)Cn1c(=O)n(CC(=O)NCc2ccc(C)cc2)c(=O)c2sccc21 (centres undefined) | -0.1 | 0.17
CC(C)OC(=O)CSc1n[nH]c(-c2cccnc2)n1 | 0.25 | .
CCOc1ccccc1COC(=O)N1CCN(c2ccc(OC)cc2)C(C)C1 (centres undefined) | . | -0.15
C=CCSc1nnc(Cn2c(=O)sc3ccccc32)n1-c1ccccc1 | 0.5 | .

The list goes on:
molecule | AID504770 | CapD inh
CCCNC(=O)c1oc(=O)c2ccccc2c1-c1ccccc1 | -0.9 | 67
CCC1=Nc2cc(C(=O)NCC(OC)OC)ccc2Sc2ccccc21 | -0.5 | -0.26
COC(=O)CSc1nnc(-c2ccccc2)n1-c1ccccc1 | -0.15 | .
O=C(Nc1c2c(nn1-c1ccc(Cl)cc1)CS(=O)(=O)C2)c1cc2ccccc2oc1=O | . | -0.36
CC(=O)Nc1ccc(/C=N/O)cc1 | -0.65 | .
N#CCCCSc1ncccc1C(=O)O | 0 | 0.8
CC(=O)Oc1c(Cl)cc(C(=O)O)cc1Cl | 1.1 | -0.82
COc1ccc(C(=O)Nc2ccccc2C(=O)NCCC(=O)O)cc1 | 2.9 | 0.095
CC1(C)CC(=O)C2=C(C1)NC1=C(C(=O)CC(C)(C)C1)C2c1cccc(F)c1 | 1.8 | 72
Cc1ccc(S(=O)(=O)NC(=O)Oc2cccc3cccnc23)cc1 | 0.05 | 9.7

(cont.)
molecule | AID504770 | CapD inh
N#Cc1c(C(F)(F)F)cc(=O)[nH]c1SCC(=O)O | -0.6 | .
CC1(C)CC(=O)/C(=C/c2ccco2)CO1 | -0.9 | -0.18
N#Cc1c(NC(=O)c2ccc(Cl)cc2Cl)oc(-c2ccccc2)c1-c1ccccc1 | . | -0.43
Fc1cccc(Cl)c1CSC1=NCN(C2CC2)CN1 | . | 0.59
COc1cc(C(=O)NC(=S)N2CCCCCC2)cc(OC)c1OC | -0.8 | .
O=C(Nc1ccc2nc(-c3ccccc3)[nH]c2c1)c1ccco1 | 0.4 | .
Nc1ccc(CCc2nc3ccccc3[nH]2)cc1 | 1.1 | 14
